VDR inh: Inhibitors of the vitamin D receptor (VDR): qHTS | VDR-SRC2-3 peptide fluorescence polarization, 2 h | Vitamin D3 receptor (Homo sapiens), P11473 | 400,000 compounds, 0.93% hits | Potency, µM, for the others: max response, negative = inhibition, usual class: inhibitors; active means well fitted inhibition curve with a large enough effect; inconclusive means small, poorly fitted or top-dose-only effect, or another doubt; inactive means no such curve, though single readings can be large or run the other way; further: series mostly up to about 120 µM
Target sequence (P11473 whole entry, looked up): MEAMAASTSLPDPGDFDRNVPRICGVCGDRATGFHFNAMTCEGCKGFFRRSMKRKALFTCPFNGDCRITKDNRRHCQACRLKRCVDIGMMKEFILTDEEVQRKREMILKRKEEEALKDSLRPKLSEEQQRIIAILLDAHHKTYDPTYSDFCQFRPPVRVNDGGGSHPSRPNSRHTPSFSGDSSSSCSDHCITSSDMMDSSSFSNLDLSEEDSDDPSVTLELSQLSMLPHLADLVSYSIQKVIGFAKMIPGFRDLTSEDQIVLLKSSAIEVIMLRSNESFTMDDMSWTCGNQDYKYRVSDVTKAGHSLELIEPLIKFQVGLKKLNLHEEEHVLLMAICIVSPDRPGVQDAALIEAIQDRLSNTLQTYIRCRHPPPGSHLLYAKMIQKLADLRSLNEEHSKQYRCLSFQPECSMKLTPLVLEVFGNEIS
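Signal is fluorescence polarization, reporting how far test compounds block the interaction of VDR with the SRC2-3 coregulator peptide after a 2 h room-temperature incubation.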
* hit, by the source's call; ? = inconclusive; & = joins results of further samples. On the % scale 0 is the no-effect control and ±100 the full control effect; potency means the concentration at half of the fitted maximal effect.

The opening two entries as a preview:
SMILES | VDR inh
CSCC[C@H](NC(=O)C1CCN(S(=O)(=O)c2ccc(C)cc2)CC1)C(=O)NCC1CCCO1 (stereo not given in full) | -11%
COc1ccc(-n2ncc3c(NCCC4=CCCCC4)ncnc32)cc1 | 4%

The whole of this part, previewed entries included:
SMILES | VDR inh
CSCC[C@H](NC(=O)C1CCN(S(=O)(=O)c2ccc(C)cc2)CC1)C(=O)NCC1CCCO1 (stereo not given in full) | -11%
COc1ccc(-n2ncc3c(NCCC4=CCCCC4)ncnc32)cc1 | 4%
C=CCNc1nc2c(c(=O)n(C)c(=O)n2C)n1CCCCCC | -7%
CN(C)S(=O)(=O)c1ccc(C(=O)OCC(=O)NC(=O)NC2CCCC2)cc1 | 9%
O=c1oc2cc(Br)ccc2n1CSC1=NCCS1 | ?
CN(C)S(=O)(=O)c1ccc(C(=O)OCC2CCCO2)cc1 (stereo not given) | 14%
COc1cccc(N2CCN(C(=O)Cn3c(-c4cccs4)cc4ccccc43)CC2)c1 | 7%
Cn1c(N/N=C/c2cc3ccccc3nc2Cl)nc2ccccc21 | -6%
Cc1ccc(Cl)c(NC(=O)CSc2cccc[n+]2[O-])c1Cl | -6%
Cc1ccccc1C(=O)Nc1ccc2nc(SCC(=O)N3CCc4ccccc43)sc2c1 | -2%
O=C(O)c1ccc[n+](Cc2ccc([N+](=O)[O-])cc2)c1 | -8%
O=c1cc(N2CCCC2)c2ccccc2o1 | 8%
N=c1c(C(=O)NCc2ccc3c(c2)OCO3)cc2c(=O)n3ccccc3nc2n1CC1CCCO1 (stereo not given) | 2%
Cn1cc(C(=O)Nc2cccc(F)c2)cn1 | 2%
COc1ccc(NC(=O)C2CCCNC2=O)cc1 (stereo not given) | 14%
Cc1cccc(C)c1NC(=O)c1ccccc1C(=O)O | -7%&-7%
CCn1cc(C(=O)NCC2CCCO2)c(=O)c2cc(S(=O)(=O)N3CCC(C)CC3)ccc21 (stereo not given) | 15%
COc1ccc(O)c(/C=N/NC(=O)c2ccc(CSc3nc(C)cc(C)n3)cc2)c1 | -8%
Cc1ccc(N2C(=O)CCSC23C(=O)Nc2ccccc23)cc1 (stereo not given) | 1%
O=C(COc1coc(CN2CCc3ccccc3C2)cc1=O)Nc1cccc([N+](=O)[O-])c1 | -21%
COC(=O)c1cn(C(=O)c2ccco2)c2ccccc12 | -1%
CCC(C)(C#CCN1CCCCC1)OCCC#N (stereo not given) | -25%
CC(=O)N1CCN(Cc2nc3cc(NC(=O)C4CCCCC4)ccc3n2C)CC1 | -17%
CC1=C(C#N)C(Nc2cccc(C)n2)(C(F)(F)F)C(=O)N1 (stereo not given) | -5%
O=C(c1cccn1-c1nnc(N2CCCCC2)s1)N1CCN(c2ccccc2)CC1 | 7%

Continuation.
SMILES | VDR inh
O=C(CSCc1ccc(Cl)cc1)Nc1ccc2c(c1)OCCO2 | 5%
O=C(Nc1ccc(Br)cn1)c1cccc(C(=O)Nc2ccc(Br)cn2)c1 | 7%
CCOc1ccc(NC(=S)NC(=O)c2ccco2)cc1 | -7%
COc1cc(-c2ccno2)ccc1S(=O)(=O)N1CCN(c2ccccc2F)CC1 | 6%
COc1ccccc1-c1nc(SCC(=O)N2CCC(C(N)=O)CC2)n[nH]1 | -22%
COc1ccc(-n2c(-c3ccco3)nc3c(cnn3-c3ccc(C)cc3)c2=O)cc1 | -5%&-4%
Cc1c(-c2nc(N)nc(Nc3ccccc3)n2)oc2ccccc12 | 12%
CCOc1ccccc1CNC(=O)CN1C(=O)CCCc2ccccc21 | 25%
CC(C)(C)NC(=O)C1CCN(S(=O)(=O)c2ccc(Br)cc2)CC1 | 5%
COc1cc(-c2noc(C)n2)cc(OC)c1OC | 8%
CCC(C)(C(=O)NC1CCCCC1)N(CC1CCCO1)C(=O)Cc1cccs1 (stereo not given) | 15%
CCCCN(C(=O)c1cccc(S(=O)(=O)N2CCCC2)c1)c1c(N)n(CCC)c(=O)[nH]c1=O | -15%
O=C1c2cccc(NCCCNCCO)c2C(=O)c2cccc(NCCCNCCO)c21 | -29%
CCC(C)n1c(=N)c(C(=O)NCc2ccco2)cc2c(=O)n3cc(C)ccc3nc21 (stereo not given) | -22%
NNC(=O)CSc1c(-c2cccs2)[nH]c2ccccc12 | -2%
Nc1nc(NCc2c(F)cccc2Cl)nn1-c1ccccc1 | -13%
O=C(C1CCN(Cc2cn[nH]c2-c2ccc(F)cc2F)CC1)N1CCOCC1 | -10%
CCOC(=O)c1[nH]ncc1CN1CCN(Cc2ccccc2)C(CCO)C1 (stereo not given) | -6%
O=C1NC(c2cccc(OCc3ccccc3)c2)Nc2ccccc21 (stereo not given) | 0%
O=C1C=C(c2cccc3c2sc2ccccc23)C[C@@H](c2ccc(F)cc2)C1 | ?
Cc1ccc(NC(=O)Cn2cnc3nc4c(cc3c2=O)CCCC4)cc1Cl | -8%
CC(=O)Nc1ccc(NC(=O)CCc2c(C)noc2C)cc1 | -1%
Cn1c(=O)c2c(nc(N3CCOCC3)n2Cc2cccc(Br)c2)n(C)c1=O | -25%
C=CCC(C)(NCc1ccccc1)c1ccccc1 (stereo not given) | ?
COC1=C2C[C@H](C)C[C@H](OC)[C@@H](O)[C@@H](C)C=C(C)[C@H](OC(N)=O)[C@@H](OC)C=CC=C(C)C(=O)NC(=CC1=O)C2=O | ?

Next section
SMILES | VDR inh
CCOc1ccc(-n2c(N)c(C(=O)N3CCN(C)CC3)sc2=S)cc1 | -3%
Cn1c(=O)c2c(ncn2CC(=O)OCC(=O)NCc2ccc(Cl)cc2)n(C)c1=O | -5%
CCCS(=O)(=O)c1snnc1C | 11%
CCOC(=O)Cn1c(=O)oc2cc(S(=O)(=O)N(C)Cc3ccco3)ccc21 | -2%
CCc1cccc(NC(=S)N(CCCOC(C)C)C2CCN(C(C)=O)CC2)c1 | 12%
CCn1cc(CN2CCCC(C(=O)Nc3ccc(-c4cscn4)cc3)C2)c(C)n1 (stereo not given) | -11%
Cc1cc(N=Nc2ccc(C)c(N=Nc3cc(C)c(N)cc3N)c2)c(N)cc1N | 6%
CC(C)NC(=O)c1ccccc1NC(=O)C(C)Oc1ccccc1 (stereo not given) | -6%
Cn1nnnc1SCC(=O)Nc1nc2c(s1)CCCC2 | -9%
COC(=O)c1ccccc1NC(=O)/C=C/c1cc(OC)c(OC)c(OC)c1 | -13%
O=C(Oc1c(CN2CCOCC2)cc(Cl)c2cccnc12)c1ccccc1Cl | -5%
O=C(Nc1nc2c(Br)cccc2s1)C1CC1 | ?
COc1ccc(/C=C/C(=O)OCCC(C)C)cc1 | -4%
COc1cc(C(=O)NNC(=O)c2ccco2)cc(OC)c1OC | -3%
CCNc1sc(C(=O)c2cccs2)c(N)c1C#N | ?
CCOC(=O)C1(Cc2ccccc2C(F)(F)F)CCN(C(C)CCn2cccn2)CC1 (stereo not given) | 13%
COc1ccc([C@H]2/C=C\CN(S(=O)(=O)c3ccc(C)cc3)[C@@H](C)C(=O)N2Cc2ccc(F)cc2)cc1 | 12%
CC(=O)c1cc(C(=O)Nc2cc(C)cc(C)c2)c2ccccn12 | -7%
CCCOC(=O)C(C)n1c(-c2ccccc2)nc2ccccc2c1=O (stereo not given) | -5%
CC(C)n1cc(CN2CCC(Oc3ccc(C(=O)N4CCCC4)cc3)CC2)cn1 | -16%
COc1ccc([C@@H]2[C@@H]3C(=O)N(C(C)(C)C)C(=O)[C@@H]3[C@]3(C)C(=O)N(c4cccc(F)c4)C(=O)N23)cc1 | -3%
c1ccc(-c2cn3c(n2)-c2ccccc2C3)cc1 | -15%
COC(=O)c1ccc(CSc2nnc(CNC(=O)COc3ccc(Cl)cc3)o2)o1 | -14%
COc1ccc(-c2c(C#N)c(SCC(=O)Nc3ccccc3C)nc(C)c2C(=O)Nc2ccc(Cl)cc2)cc1 | 15%
CCOC(=O)Cc1csc(N/N=C\c2cccc(Br)c2)n1 | ?

Three of the entries above in order of their number in VDR inh, lowest first:
mol | VDR inh
CC(C)n1cc(CN2CCC(Oc3ccc(C(=O)N4CCCC4)cc3)CC2)cn1 | -16%
CCCOC(=O)C(C)n1c(-c2ccccc2)nc2ccccc2c1=O (stereo not given) | -5%
CCOc1ccc(-n2c(N)c(C(=O)N3CCN(C)CC3)sc2=S)cc1 | -3%

(further entries)
SMILES | VDR inh
COc1cc(Cl)c(CN2CCC(CO)(CCOc3ccccc3)CC2)cc1OC | -14%
O=C(NCc1cccs1)c1cc(-c2cccs2)on1 | -1%
CCOC(=O)N1CCC(N2Cc3cccc(C(=O)Nc4ccc(F)cc4)c3C2=O)CC1 | 9%
CCOc1ccc(NC(=O)CSc2nc3ccccc3c(=O)n2CCC(=O)NC2CCCCC2)cc1 | 12%
CC1CC(C)CN(C(=O)CCc2nnc3ccc(N4CCCCC4)nn23)C1 (stereo not given) | -17%
CNc1nc(SC(C)C(=O)Nc2ccc(Cl)c(Cl)c2)nc(N2CCOCC2)n1 (stereo not given) | ?
Cc1cc(C)c2sc(NC(=O)c3ccc(S(=O)(=O)N4CCOCC4)cc3)nc2c1 | 14%
N#Cc1nc(COc2cccc(Cl)c2)oc1NCCc1ccccc1 | 4%
CCc1ccccc1NC(=O)CSc1nc2ccccc2n1CC(=O)N1CCCC1 | 11%
CC(=O)N/C(=C/c1ccccc1)C(=O)NC(Cc1ccccc1)C(=O)O (stereo not given) | 1%
COc1ccc2c(c1)NC(c1ccc(OCC(C)C)cc1)=NC(c1ccncc1)=N2 | 14%
Cc1ccc(F)cc1NC(=O)COC(=O)C1CCN(c2ccc(C(F)(F)F)cn2)CC1 | -4%
COc1ccc(NC(=O)C2Cc3ccccc3CN2C(=O)c2ccco2)cc1 (stereo not given) | -24%
CC(C)n1c(=O)[nH]c(=O)n1C(C)C | -4%
Nc1nc(CSC(=S)N2CCOCC2)nc(Nc2ccccc2)n1 | 5%
O=C(CSCc1cccc(Cl)c1)OCc1nc2ccsc2c(=O)[nH]1 | 11%
Cn1c(N2CCOCC2)c(C#N)c2ccccc21 | 13%
Cc1ccccc1NC(=O)CCN1CCN(CCO)CC1 | 7%
CC(C)n1c(SCC(=O)Nc2ccccc2)nc2c1c(=O)n(C)c(=O)n2C | -3%
Cc1cccc(NC(=O)c2ccc(COc3ccccc3)o2)n1 | 3%
O=C(Nc1cccc([N+](=O)[O-])c1)c1cnccn1 | -1%
CC(C)CNC(=S)N(CCCN(C)C)Cc1cc2cc3c(cc2[nH]c1=O)OCCO3 | 8%
O=C(c1cccc([N+](=O)[O-])c1)N1CCN(c2ccc(Cl)cc2)CC1 | 1%
CN(C)/C=N/C(=S)Nc1ccc(Cl)cc1Cl | 3%
CCOC(=O)c1c(N2C(=O)C3C4C=CC(C4)C3C2=O)sc2c1CCC(C)C2 (stereo not given) | -10%

A draw from above in order of SMILES length, largest number first:
SMILES | VDR inh
Cc1ccc(F)cc1NC(=O)COC(=O)C1CCN(c2ccc(C(F)(F)F)cn2)CC1 | -4%
CC(C)CNC(=S)N(CCCN(C)C)Cc1cc2cc3c(cc2[nH]c1=O)OCCO3 | 8%
N#Cc1nc(COc2cccc(Cl)c2)oc1NCCc1ccccc1 | 4%
O=C(Nc1cccc([N+](=O)[O-])c1)c1cnccn1 | -1%
CN(C)/C=N/C(=S)Nc1ccc(Cl)cc1Cl | 3%

Four of the compounds above, as labelled records:
CC(C)n1c(SCC(=O)Nc2ccccc2)nc2c1c(=O)n(C)c(=O)n2C
  VDR inh = -3%

Cc1cccc(NC(=O)c2ccc(COc3ccccc3)o2)n1
  VDR inh = 3%

O=C(Nc1cccc([N+](=O)[O-])c1)c1cnccn1
  VDR inh = -1%

CC(C)CNC(=S)N(CCCN(C)C)Cc1cc2cc3c(cc2[nH]c1=O)OCCO3
  VDR inh = 8%

Next part.
SMILES | VDR inh
O=C(c1ccc(-c2cccc(C(F)(F)F)c2)o1)N1CCOCC1 | 16%
COc1ccc(C)cc1NC(=O)C(OC(=O)c1ccc(Cl)c(S(=O)(=O)N(C)c2ccccc2)c1)c1ccccc1 (stereo not given) | -15%
COc1ccc(S(=O)(=O)NCCC(=O)NCc2ccc(F)cc2)cc1 | 10%
CC(=O)Nc1ccc(NC(=O)C/C(C)=N/NC(=O)c2cccc3ccccc23)cc1 | 7%
O=C1OC[C@@H]2CCCN2C(=O)[C@@H](CC(=O)N(CCO)Cc2ccccc2)C/C=C\C[C@H]1Cc1ccc(F)cc1 | -2%
CC(=O)c1c(C)n(-c2ccc(C)cc2C)c2ccc(O)cc12 | 17%
Cc1cccn2cc(-c3ccc(Cl)cc3)nc12 | 5%
Cc1ccc(CSCCC(=O)NCCC2=CCCCC2)cc1 | -9%
O=C(Nc1cccc(C(F)(F)F)c1)Nc1ccc(N2CCCC2)c(S(=O)(=O)Nc2ccccc2Cl)c1 | -20%
CC1CCC2(CC1)NC(=S)N(C(C)(C)C)N2 (stereo not given) | ?
CC1Cc2ccccc2N1C(=O)C1CCCN(S(=O)(=O)c2cccc3nsnc23)C1 (stereo not given) | -13%
COc1ccc(CNC(=O)N2CCN(S(=O)(=O)c3ccc(C)cc3C)CC2)cc1 | 23%
COc1cc(S(=O)(=O)Nc2cccc(C)c2)ccc1NC(=O)c1cccnc1 | 1%
Cc1ccc(Cn2nc3c4cc(F)ccc4n(Cc4ccc(F)cc4)cc-3c2=O)cc1 | -15%
Cc1nnc(-c2cnn(C)c2N)n1Cc1cccc(Cl)c1 | -1%
COc1cc(OC)cc(C(=O)NCC(=O)OCc2csc(-c3ccccc3)n2)c1 | ?
COc1ccc(OCC(=O)NNC(=O)c2ccccn2)cc1 | 23%
O=C(c1ccc(N2C(=O)C3CCCCC3C2=O)cc1)N1CCCCC1 (stereo not given) | -17%
COc1ccccc1-n1nc(-c2ccccc2)c2cnc3c(F)cc(F)cc3c21 | -14%
Cc1nnc(SCC(=O)NC23CC4CC(CC(C4)C2)C3)n(N)c1=O | -13%
N=C(N)c1ccc(OCCCCCOc2ccc(C(=N)N)cc2)cc1 (tested in a mixture with another compound) | 5%

Bioassay records (PubChem BioAssay)

Not all compounds are listed (hit frequency here may not be typical).
